# Six1-Eya2 inh = inhibitors of human Six1/Eya2 interaction | AlphaScreen GST-Six1/His-Eya2 binding, biochemical; stronger effect = lower value; control for the full effect not named in the record | 360,000 tested, 0.56% active | activity change, % (test concentration not listed) | AID 651725; in the data active = activity change below about -65%; inconclusive = about -30% to -65%; inactive = above about -30%; note: % is set by controls: 0 for no effect and ±100 for the full control effect; compound concentration not given in the record
#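 Compounds are tested against tagged Six1 and Eya2 proteins bridged by glutathione donor and nickel acceptor beads; after a one-hour incubation at 37 °C without light, AlphaScreen emission is recorded.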
# D2 agonist = human D2 receptor agonism in beta-arrestin assay; P14416; DiscoveRx PathHunter D2 beta-arrestin, luminescence, 90 min; 100% = 57 uM dopamine signal; activation, % (test concentration not listed); 360,000 tested, 0.084% active; in the data active = activation above about 40%; inconclusive = about 15% to 40%; inactive = below about 15%; note: compound concentration not given in the record; the text of the record calls up to 30% inactive
# Target sequence (P14416 whole entry, looked up): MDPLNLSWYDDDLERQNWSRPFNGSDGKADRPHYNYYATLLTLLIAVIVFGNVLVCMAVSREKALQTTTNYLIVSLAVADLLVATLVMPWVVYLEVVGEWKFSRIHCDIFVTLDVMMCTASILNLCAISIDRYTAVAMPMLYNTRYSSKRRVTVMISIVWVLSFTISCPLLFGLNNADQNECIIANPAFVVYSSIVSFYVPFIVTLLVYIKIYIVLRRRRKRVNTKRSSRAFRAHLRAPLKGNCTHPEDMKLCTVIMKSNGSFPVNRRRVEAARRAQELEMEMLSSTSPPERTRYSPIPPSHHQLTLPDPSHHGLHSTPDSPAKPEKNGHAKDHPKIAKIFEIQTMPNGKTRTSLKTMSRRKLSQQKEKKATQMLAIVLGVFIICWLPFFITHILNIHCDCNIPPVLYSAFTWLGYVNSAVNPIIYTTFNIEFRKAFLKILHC
#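 DiscoveRx PathHunter D2 beta-arrestin cells (2,100/well) attached overnight, then compound-stimulated 90 min at 37 C in HBSS/10 mM HEPES/0.1% Tween-20 buffer; beta-galactosidase complementation read by luminescence after 1 h at ambient temperature. Dopamine 57 uM final (EC100) as control.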
# PINK1 expr mod = modulators of PINK1 expression; PINK1 immunofluorescence, high-content cytometry, 24 h; Potency, µM (doses to about 76.6 µM), for the others: at the highest dose activation (PINK1 increase), actives largely listed as activators; 410,000 tested, 0.2% active; AID 624263; active = well fitted activation curve with a large enough effect; inconclusive = small, poorly fitted or top-dose-only effect; inactive = flat fitted curve, though single readings scatter; cell line not stated here;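 note: potency is the fitted concentration of half-maximal effect; % of control where 0% means no effect; nearly all actives have a fitted effect of over 65% in size; a mitochondrial uncoupler was the plate control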
#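 Stable cell line, 250 cells/well, 12 h attachment; compounds pinned at 5 concentrations, 24 h; CCCP control. Fixed with nuclear dye, primary antibodies 12 h at 10 degrees C, secondary plus cell stain; laser-scanning cytometer read.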
# CtBP-E1A blk = blocks the CtBP interaction with E1A. AlphaScreen GST-E1A/His-CtBP binding, 1536-well; stronger effect = lower value; control for the full effect not named in the record. activity change, % (test concentration not listed). 340,000 tested, 0.49% active. AID 651724; in the data active means activity change below about -65%; inconclusive means about -30% to -65%; inactive means above about -30%; note: % is set by controls: 0 for no effect and ±100 for the full control effect; compound concentration not given in the record
#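 GST-E1A and His-tagged CtBP (125 nM each as 5X stock) were preincubated with pin-transferred compound for 2 h at 37 °C in the dark, then glutathione donor and nickel acceptor beads were added for 1 h before AlphaScreen reading.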
# Sfp inh = blocks B. subtilis Sfp PPTase activity. Potency, µM, for inactives: max response, negative = inhibition, actives largely listed as inhibitors. AID 1490. Q9F4F7. 310,000 tested, 3.5% active. Biochemical Sfp PPTase activity, qHTS; active = well fitted inhibition curve with a large enough effect; inconclusive = small, poorly fitted or top-dose-only effect, or another doubt; inactive = no such curve, though single readings can be large or run the other way;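 note: the enzyme is Sfp with the accession as filed and its product quenches rhodamine fluorescence; potency is the fitted concentration of half-maximal effect; 0% = enzyme reaction without inhibitor and -100% = no enzyme wells; top concentration of the series not given in the record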
#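 Step 1, compound plus 15 nM Sfp-PPTase, 15 min, room temperature. Step 2, add rhodamine-CoA (5 uM) and BHQ-2-YbbR (12.5 uM). Step 3, read 525/598 nm fluorescence at 0 and 30 min.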
# TRPV1 potentiator = potentiators of human vanilloid receptor 1 (TRPV1) | 320,000 tested, 0.02% active | AID 540277 | Q8NER1 | potentiation, % at 8.33 µM | TRPV1-expressing cells, Fluo-8 calcium influx, capsaicin EC20 potentiation; host cell line not named in the record; control for the full effect not named in the record; active means potentiation above 80%; inconclusive means 30% to 80%; inactive means below 30%; note: 0% is about no effect
#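 TRPV1-expressing cells were cultured overnight at 35.5C and loaded with Fluo-8 calcium dye for 40 to 90 min at room temperature. After a 10 s baseline, compound was added and calcium influx was read kinetically for 3 min (ex 480/em 520 nm).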
# D2 PAM = positive allosteric modulators of human D2 dopamine receptor; DiscoveRx D2 beta-arrestin cells, luminescence, 90 min; 100% = 57 uM dopamine signal; potentiation, % (test concentration not listed); 360,000 tested, 0.23% active; AID 624464; active = potentiation of 50% or more; inconclusive = 30% to 50%; inactive = 30% or less;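 note: compound concentration not given in the record; tested on top of an EC20 dose of dopamine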
#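 PathHunter D2 cells, attached overnight at 37 deg C, received compound in DMSO plus dopamine at EC20 (50 nM final) for 90 min at 37 deg C. Beta-arrestin recruitment was read as luminescence after 1 h with detection reagent at ambient temperature.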
# Active calls of the source: *; ? = inconclusive; nt = not tested or not shown; [ ] = another dose, or the depositor's remark.
# Every second line gives: Six1-Eya2 inh	D2 agonist	PINK1 expr mod	CtBP-E1A blk	Sfp inh	TRPV1 potentiator	D2 PAM
(1) Cc1ccc(Cn2nnc3c(=O)[nH]c(C4CCN(S(=O)(=O)c5ccccc5)CC4)nc32)cc1
  -2	-1.0	0.0%[38.3 µM]	-6	-4%	-18	-4
(2) O=Cc1ccc(Oc2nc(Cl)ncc2F)cc1
  -11	-5.5	3.5%	12	18%	?	-2
(3) Cc1ccc2c(c1)[nH]c1c(=O)n(Cc3ccco3)cnc12
  1	-1.4	0.6%	8	-6%	-58	2
(4) O=C(Nc1ccc(F)cc1)c1cc(S(=O)(=O)Nc2ccc(F)cc2)cs1
  12	0.7	0.1%	-1	11%	-3	-13
(5) O=C1C2C3C=CC(C3)C2C(=O)N1CNc1ccccn1 (stereo not given)
  11	1.7	-0.4%	-2	13%	2	14
(6) CC(CCc1ccccc1)NC(=O)c1ccc(Cl)nc1 (stereo not given)
  6	-4.0	1.3%	3	13%	1	-27
(7) CC(Oc1ccc(Cl)cc1)C(=O)Nc1ccc(S(=O)(=O)Nc2nccs2)cc1 (stereo not given)
  1	-0.5	-0.2%	-11	28%	12	-1
(8) CC1CCC2C(=O)N(c3ccc(NC4CCCCC4)c([N+](=O)[O-])c3)C(=O)C2C1 (stereo not given)
  ?	-2.1	0.8%	?	-12%	6	-11
(9) CCCc1nnc(SCC(=O)N2C(C)CCCC2C)n1CC1CCCO1 (stereo not given)
  -3	6.0	-0.6%	-3	11%	9	-13
(10) Nn1c(N2CCCCC2)nc2ccccc21
  -3	-1.6	-2.3%	4	13%	12	-27
(11) Cc1cccc(Cl)c1OCCCn1ccnc1
  -6	-0.6	-1.1%	nt	-24%	13	-6
(12) COc1ccc(CCN(Cc2ccc(C(C)C)cc2)S(=O)(=O)c2ccc(S(=O)(=O)N(C)C)cc2)cc1OC
  5	1.4	10%	0	7%	4	-11
(13) C=CCN1C(=O)c2ccc(C(=O)N(C)CC(=O)Nc3ccccc3C(F)(F)F)cc2C1=O
  0	3.7	-0.1%	8	17%	5	-5
(14) Cc1nn(CCC(=O)NCCc2ccccc2Cl)c(=O)c2nn(-c3ccccc3)c(C)c12
  -3	2.2	0.0%	1	14%	-3	-4
(15) O=C(CN(C(=O)CNS(=O)(=O)c1ccccc1)c1ccc2c(c1)OCCO2)NC1CCCCC1
  -4	-1.6	-1.8%	6	5%	13	-12

# Three compounds drawn at random from those above:
# Every second line gives: Six1-Eya2 inh	D2 agonist	PINK1 expr mod	CtBP-E1A blk	Sfp inh	TRPV1 potentiator	D2 PAM
(15) O=C(CN(C(=O)CNS(=O)(=O)c1ccccc1)c1ccc2c(c1)OCCO2)NC1CCCCC1
  -4	-1.6	-1.8%	6	5%	13	-12
(12) COc1ccc(CCN(Cc2ccc(C(C)C)cc2)S(=O)(=O)c2ccc(S(=O)(=O)N(C)C)cc2)cc1OC
  5	1.4	10%	0	7%	4	-11
(6) CC(CCc1ccccc1)NC(=O)c1ccc(Cl)nc1 (stereo not given)
  6	-4.0	1.3%	3	13%	1	-27

# Entries listed so far that have an NH in an aromatic ring, in the order listed:
# Every second line gives: Six1-Eya2 inh	D2 agonist	PINK1 expr mod	CtBP-E1A blk	Sfp inh	TRPV1 potentiator	D2 PAM
(1) Cc1ccc(Cn2nnc3c(=O)[nH]c(C4CCN(S(=O)(=O)c5ccccc5)CC4)nc32)cc1
  -2	-1.0	0.0%[38.3 µM]	-6	-4%	-18	-4
(3) Cc1ccc2c(c1)[nH]c1c(=O)n(Cc3ccco3)cnc12
  1	-1.4	0.6%	8	-6%	-58	2

# Back to the main list; the two compounds before the break are reprinted first.
# Every second line gives: Six1-Eya2 inh	D2 agonist	PINK1 expr mod	CtBP-E1A blk	Sfp inh	TRPV1 potentiator	D2 PAM
(14) Cc1nn(CCC(=O)NCCc2ccccc2Cl)c(=O)c2nn(-c3ccccc3)c(C)c12
  -3	2.2	0.0%	1	14%	-3	-4
(15) O=C(CN(C(=O)CNS(=O)(=O)c1ccccc1)c1ccc2c(c1)OCCO2)NC1CCCCC1
  -4	-1.6	-1.8%	6	5%	13	-12
(16) CN1CCC(NC(=O)c2ccncc2)CC1
  0	-1.8	0.4%	1	7%	8	-4
(17) O=C(Nc1cccnc1)c1ccc(-c2cc(Cl)ccc2Cl)o1
  -5	5.7	3.8%	nt	-10%	0	-9
(18) O=C(Nc1ccccc1)C(=O)Nc1cccnc1
  5	-1.9	2.3%	3	8%	nt	-4
(19) C(=C\c1ccccc1)/CN1CCN(Cc2nc(Cc3ccccc3)no2)CC1
  -12	1.3	2.6%	nt	2%	-11	-17
(20) Cc1nn(-c2ccccc2)c(Oc2ccccc2)c1C=O
  0	-6.5	1.7%	nt	4%	-13	-12
(21) COC(=O)Nc1ccc(S(=O)(=O)N2CCCc3cccc(O)c32)cc1
  1	-4.4	5.5%	nt	-4%	-3	2
(22) COC(=O)c1c(C)cc(C)c2c1CC(C)(C)C2=O
  12	-2.9	2.9%	8	3%	9	-8
(23) Cn1c(CSCc2ccc(Cl)c(Cl)c2)n[nH]c1=S
  0	-10	-3.1%	-2	-19%	-12	-9
(24) COc1nc(C)nc(C)c1Oc1ccc(Cl)cc1Cl
  7	-2.6	6.8%	4	-4%	1	-1
(25) CCOC(=O)Cn1c(=NC(=O)CSC(C)=O)sc2ccccc21
  -1	-3.8	-0.3%	1	21%	22	-7
(26) Cc1csc(NC(=O)CSc2ccc3nnc(-c4ccncc4)n3n2)n1
  -17	2.3	3.9%	-25	-3%	24	-2
(27) CCOC(=O)CC(NS(=O)(=O)Cc1ccccc1)c1ccc(C)cc1 (stereo not given)
  -1	-4.8	1.4%	1	1%	25	-10
(28) Nc1ccc(C(=O)OCc2nc3c(ccc4ccccc43)[nH]2)cc1
  -2	-3.8	-0.2%	-2	3%	-1	-14
(29) O=C(Nc1nnc(-c2ccccc2F)s1)c1ccccc1F
  16	1.7	3.5%	4	-2%	-3	-3
(30) COc1cc(CN2CCCC(C(=O)Nc3ccccc3Oc3cccnc3)C2)ccc1F (stereo not given)
  2	0.2	1.6%	nt	9%	-2	-8

# Remaining list, next part.
# Every second line gives: Six1-Eya2 inh	D2 agonist	PINK1 expr mod	CtBP-E1A blk	Sfp inh	TRPV1 potentiator	D2 PAM
(31) COc1ccc2c(c1)C=C(CN1CCC(CO)(CCc3ccccc3)CC1)CO2
  -9	-1.0	5.1%	-17	16%	4	-18
(32) CN(CC1CCCN(CCc2ccccc2F)C1)C(=O)c1cc2ccccc2o1 (stereo not given)
  -4	-2.0	0.7%	0	nt	nt	-46
(33) CCC(C)NC(=O)CSc1ccc(Cl)cc1 (stereo not given)
  6	-2.8	-0.6%	4	8%	-4	-18
(34) COCCNC(=O)c1c(CS(=O)(=O)c2ccccc2)noc1C(=O)NCc1ccccc1
  5	-2.8	1.6%	3	nt	29	-8
(35) CCOC(=O)C1=CCN(S(=O)(=O)c2ccc(F)cc2)C1c1ccc(C)cc1 (stereo not given)
  3	-3.4	0.9%	5	nt	nt	0
(36) O=C(NCCCc1ccccc1)[C@@H]1Cc2ccccc2CN1
  8	-1.6	2.7%	5	3%	-24	-1
(37) CC(=O)Nc1ccc(S(=O)(=O)Nc2ccc(Nc3ccccc3)cc2)cc1
  2	-1.5	3.9%	nt	-2%	-2	-5
(38) Cc1ccc(Cl)cc1N(CC(=O)Nc1cccc(N(C)S(C)(=O)=O)c1)S(C)(=O)=O
  3	-5.4	0.7%	5	-5%	16	0
(39) Cc1c(Br)c(O)c(Br)c2sc(=O)oc12
  ?	14	0.4%	-10	2.8µM*	nt	-12
(40) CCc1nnc(SCC(=O)N2CCCC(N3CCN(c4ccccc4C)CC3)C2)o1 (stereo not given)
  1	2.9	3.7%	-3	4%	-31	-22
(41) COc1ccc2c(c1)NC(c1cc(Cl)cc(Cl)c1O)c1cccn1-2 (stereo not given)
  -15	-1.1	9.8%	-11	4%	6	2
(42) COc1cccc(C(=O)NCc2ccc3c(c2)OCO3)c1OC
  -12	2.0	2.3%	-1	1%	1	-2
(43) O=C(COc1nc2ccccc2nc1N1CCOCC1)Nc1cccc(S(=O)(=O)N2CCCCC2)c1
  -5	1.0	8.9%	-5	9%	3	-3
(44) COC(=O)C1CC2=C(CCCC2=O)N(Cc2ccccc2)C1=O (stereo not given)
  0	1.3	0.1%	2	nt	nt	-7
(45) Cc1c(C(=O)C(=O)NCc2ccco2)c2ccccc2n1C
  6	-2.1	0.0%	2	7%	-28	5

# Next results follow.
# Every second line gives: Six1-Eya2 inh	D2 agonist	PINK1 expr mod	CtBP-E1A blk	Sfp inh	TRPV1 potentiator	D2 PAM
(46) Cc1ccc(OCC(=O)N/N=C/c2cccnc2)cc1
  2	-3.4	-1.2%	6	6%	-28	-6
(47) COc1ccc(NC(=O)c2cn(C)c(=O)c3cc(OC)c(OC)cc23)c(OC)c1
  -9	0.5	1.8%	nt	12%	29	0
(48) Oc1ccc(Cl)cc1CNc1cnc2ccccc2c1
  -2	2.9	2.6%	nt	-1%	23	-20
(49) CSc1ccccc1C(=O)N1CCN(c2ncccn2)CC1
  -1	-8.8	2.6%	15	22%	6	0
(50) COc1cc(CN2CCN(Cc3ccc(C(F)(F)F)cc3)CC2)cc(OC)c1OC
  4	-4.1	3.2%	nt	20µM*	?	-68
(51) CCCC1NC(=O)c2cc3ccccc3cc2-n2c1nc1cc(Cl)ccc1c2=O (stereo not given)
  1	-2.3	4.3%	-4	nt	nt	nt
(52) CC(C)(CN1CCCCC1)NS(=O)(=O)c1ccc(Cl)cc1
  9	-5.0	2.7%	7	-3%	6	-33
(53) Cc1ccc(C)c(C(=O)COC(=O)CNS(=O)(=O)c2ccccc2)c1
  4	1.2	2.8%	4	5%	6	-4

# Structures listed above that bear a hit mark in Sfp inh:
entry | SMILES | Six1-Eya2 inh | D2 agonist | PINK1 expr mod | CtBP-E1A blk | Sfp inh | D2 PAM
39 | Cc1c(Br)c(O)c(Br)c2sc(=O)oc12 | ? | 14 | 0.4% | -10 | 2.8µM* | -12
50 | COc1cc(CN2CCN(Cc3ccc(C(F)(F)F)cc3)CC2)cc(OC)c1OC | 4 | -4.1 | 3.2% | nt | 20µM* | -68

# Source: PubChem (National Center for Advancing Translational Sciences (NCATS))
